Source: PubChem BioAssay (several laboratories)
T cruzi repl = inhibitors of intracellular T. cruzi growth, primary screen, luminescence, NIH3T3 host cells; T. cruzi beta-gal in NIH3T3, 90 h; inhibition, % (no concentration beside the values); 300,000 tested, 1.4% active; AID 1885, 2009;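 active = mean inhibition across valid replicates above about 55%, limit read from the data; inconclusive = mean below that limit but half or more replicates reach it; inactive = mean below it, under half of replicates reach it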;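 also: signal also drops with host cell toxicity which is not excluded here; 0% = plate median of DMSO wells and 100% = zero luminescence signal; higher percent means less beta-gal luminescence so fewer parasites; stock transfer was 50 nL into about 50 µL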
Calb FLC = C. albicans growth inhibition with fluconazole, primary screen, CaCi-2 strain, Alamar Blue fluorescence | 300,000 tested, 0.57% active | AID 1979, 2009 | growth inhibition, % (test concentration not listed) | C. albicans CaCi-2 (fluconazole-resistant clinical isolate) + fluconazole, 48 h;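 active = most replicates above 75%; inconclusive = exactly half above 75%; inactive = most below 75%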;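 also: all wells also contain fluconazole at 8 µg/ml as a sub-toxic cotreatment; 0% = median of DMSO wells and 100% = median of geldanamycin control wells; wells of about 8 µL received 7.5 nL stock; the first replicate is given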
UCH37 inh = inhibitors of human UCH37 deubiquitinase, primary screen, biochemical, Ub-AMC cleavage, fluorescence; Ubiquitin carboxyl-terminal hydrolase isozyme L5 (Homo sapiens), Q9Y5K5; purified proteasome/UCH37; inhibition, % (test concentration not listed); 330,000 tested, 0.33% active; AID 588478, 2011;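 active = mean of two replicates above 20%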;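 also: 0% = compound-free wells with enzyme and 100% = wells lacking proteasome; stock transfer was 100 nL into about 20 µL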
Target sequence (Q9Y5K5 whole entry, looked up): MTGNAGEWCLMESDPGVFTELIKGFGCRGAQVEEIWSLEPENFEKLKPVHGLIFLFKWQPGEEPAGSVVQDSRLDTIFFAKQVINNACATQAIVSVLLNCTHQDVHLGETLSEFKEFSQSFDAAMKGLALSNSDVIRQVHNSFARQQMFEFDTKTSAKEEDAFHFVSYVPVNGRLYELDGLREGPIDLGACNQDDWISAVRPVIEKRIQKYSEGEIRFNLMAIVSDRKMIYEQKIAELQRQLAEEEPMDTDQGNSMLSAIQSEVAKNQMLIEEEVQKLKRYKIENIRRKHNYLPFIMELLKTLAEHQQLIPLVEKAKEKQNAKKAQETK
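Signal – fluorescence, ex 355 nm, em 460 nm · System – Proteasome-bound UCH37 · Input – 0.15 nM proteasome as dispensed · Timing – 30 min preincubation with enzyme, 25 min cleavage at room temperature · Read-out basis – percent inhibition of cleavage signal versus uninhibited and no-proteasome wells · Medium – Tris-HCl pH 7.4 with ATP-MgCl2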
LANA-H2A inh = blockers of LANA interaction with H2A/H2B – biochemical, FP readout, HTS, primary screen; Protein LANA1 (Human herpesvirus 8 type P (isolate GK18)), Q9QR71; cell-free LANA-H2A/H2B peptide, fluorescence polarization; inhibition, % (test concentration not listed); 320,000 tested, 0.6% active; AID 2629, 2010; in the data active = inhibition mostly above about 10%, no sharp cut-off; inactive = mostly below about 6.7%;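 also: stock transfer was 7.5 nL into about 10 µL; 0% = median of vehicle wells and 100% = median of positive control wells; one replicate is shown; the record names a cut of 25% in any replicate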
Beta apoptosis = inhibitors of cytokine-induced beta cell apoptosis, primary screen, luminescence | protection from apoptosis, % (concentration not given with the values) | 300,000 tested, 0.8% active | INS-1E cytokine-induced death, ATP luminescence, 48 h; percent of positive-control rescue, neutral wells zero | AID 435005, 2010;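 active = all replicates at 75% or more, or half of them and the mean; inconclusive = half reach 75% but not the mean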;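 also: 0% = cytokine-treated negative control wells and 100% = positive control rescue; higher means more ATP so stronger rescue from cytokine killing; wells of about 40 µL received 100 nL stock; the first replicate is given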
RanGTP-Imp inh = inhibitors of RanGTP-importin-beta interaction, primary screen, biochemical, FRET, CFP-Ran, YFP-importin-beta, homogeneous. cell-free CFP-Ran/YFP-importin-beta FRET ratio. inhibition, % (test concentration not listed). 300,000 tested, 1.1% active. AID 2216, 2009;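 active = most replicates above 15%; inconclusive = exactly half above 15%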;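 also: 0% = DMSO wells and 100% = Ran loaded with GDP instead of GTP; wells of about 40 µL received 100 nL stock; the first replicate is given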
B2AR ag = beta2AR agonists driving receptor internalization, primary screen, cell-based, FAP fluorogen, flow cytometry | 340,000 tested, 0.43% active | Am2.2-beta2AR cells; reference of the scale not given here | response, % (concentration not given with the values) | Beta-2 adrenergic receptor (Homo sapiens), P07550;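 active = response above a set limit, near 3 SD of response in nonfluorescent compounds, cut at about 42% in these data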;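 also: stock transfer was 100 nL into about 11 µL; a reference agonist was the positive control; negative values mostly stem from fluorescent compounds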
Target sequence (P07550 whole entry, looked up): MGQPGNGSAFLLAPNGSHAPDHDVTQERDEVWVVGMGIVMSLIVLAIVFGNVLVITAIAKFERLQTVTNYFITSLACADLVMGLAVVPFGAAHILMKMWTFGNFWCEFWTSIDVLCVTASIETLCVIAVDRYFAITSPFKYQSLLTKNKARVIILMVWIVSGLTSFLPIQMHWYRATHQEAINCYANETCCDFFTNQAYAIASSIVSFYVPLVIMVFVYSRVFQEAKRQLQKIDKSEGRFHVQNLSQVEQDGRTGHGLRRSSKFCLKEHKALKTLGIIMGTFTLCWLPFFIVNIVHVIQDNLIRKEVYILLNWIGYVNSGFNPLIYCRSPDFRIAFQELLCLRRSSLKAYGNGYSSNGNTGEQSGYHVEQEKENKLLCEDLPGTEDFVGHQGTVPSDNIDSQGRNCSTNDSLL
A1 inh = caspase 3/7 activation in MEF A1-2A-BIM cells, primary screen, A1 inhibitor project, cell-based, luminescence, HTS. Caspase-Glo 3/7 luminescence, 3 h; percent of clofoctol response, vehicle zero. caspase activation, % (concentration not given with the values). 330,000 tested, 0.066% active;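 active = over half of replicate activation scores above 10%, or exactly half above 10 with the replicate mean above 10; inconclusive = replicate mean below 10 yet half the replicates above 10; inactive = over half of replicates below 10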;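 also: wells of about 30 µL received 50 nL stock; many hits fall short of the cut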
Starred values were filed as active, the others as inactive; ? = inconclusive; / = no result given.

Every second line gives: B2AR ag, A1 inh, RanGTP-Imp inh, LANA-H2A inh, Beta apoptosis, UCH37 inh, Calb FLC, T cruzi repl
- NC1=NN=C(N2N=C(c3ccccc3)CC2(O)C(F)(F)F)n2ncnc2C1 (stereo not given)
 : 0, -0.1, 3.1, -0.1, -3, -2.8, -7, -17
- O=C(Nc1ccc(S(=O)(=O)NCc2ccco2)cc1)c1ccncc1
 : 1, 0.3, -1.1, 1.1, 2, 3.7, 2, 8
- CCN1CCN(c2c(Cl)cccc2NC(=O)c2ccc3c(c2)OCCO3)CC1
 : 0, 0.2, -0.3, -0.7, 5, -1.3, 4, 11
- O=C(NC1CC(=O)N(c2ccc(F)cc2)C1)C(=O)c1c[nH]c2ccccc12 (stereo not given)
 : -11, -0.7, 7.2, 1.0, -1, 4.4, /, 6
- O=[N+]([O-])c1ccc(C2CCCC/C2=N/OCc2ccc(F)cc2)c([N+](=O)[O-])c1 (stereo not given)
 : -4, -0.2, 3.2, -0.5, -2, /, 115*, 61*
- COCCN(C(=O)CCC(=O)Nc1ccccn1)C(C(=O)NCCC(C)C)c1ccc(C)cc1 (stereo not given)
 : 2, 0.2, 13, 0.5, 0, -0.8, 7, 2
- CC1CCN(c2cc(N)c(Cl)cc2[N+](=O)[O-])CC1
 : 0, 0.0, -3.0, -2.8, 3, 2.2, 0, -13
- COc1cc(NC(=O)Cn2ncc(Cl)c(Cl)c2=O)c(C)cc1[N+](=O)[O-]
 : 39, /, 27*, /, /, 6.1, 33, 85*
- COc1ccc(/C(C)=N\NS(C)(=O)=O)c(OC)c1
 : -5, -0.5, -3.3, 3.1, -5, /, -1, 1
- COCCCNC(=S)N/N=C/c1ccccc1O
 : 3, -1.1, 5.2, -5.6, 11, /, -9, /
- Cc1cc(-c2cccs2)n[nH]1
 : 1, 0.3, 0.2, -3.9, 0, 1.8, -6, -16
- CCCC(=O)Nc1nnc(-c2ccco2)s1
 : -5, -0.8, /, -2.2, -6, 0.4, -10, /
- O=C(Cc1ccc([N+](=O)[O-])cc1)NCC1CCCO1 (stereo not given)
 : 8, 0.4, 2.5, -4.7, 1, 2.3, -9, -5
- O=C(OCC(=O)N1CCN(S(=O)(=O)c2ccc(Cl)cc2)CC1)c1ccc([N+](=O)[O-])o1
 : -2, -0.1, -0.7, -8.4, -8, 5.0, 2, 0
- CCC1Sc2ccccc2N(CC(=O)NCc2ccc3c(c2)OCO3)C1=O (stereo not given)
 : -2, 0.0, -2.6, -0.8, 0, 1.7, -14, -6
- Cc1cc(Sc2nc(NC(C)C)nc(NC(C)C)n2)nc(Cl)n1
 : -8, 1.5, -8.3, -0.8, 1, 4.7, 5, 13
- CCN(CC(=O)NC1CCS(=O)(=O)C1)C(=O)c1ccc(S(=O)(=O)N(CC)CC)cc1 (stereo not given)
 : 1, 1.5, /, 4.6, 5, -0.2, /, /
- Cc1ccc[n+](CC(=O)N2CCCCC2)c1C
 : 10, -0.5, -1.8, 2.5, -5, 5.5, -9, -4
- O=C(CCn1nnc2ccccc21)NNC(=O)C1CCCCC1
 : -2, 2.4, 0.8, 0.0, 3, -0.6, 26, -31
- Cc1ccc2c(C)c(C(=O)N3CCN(c4ncccn4)CC3)oc2c1C
 : -6, /, -2.1, /, /, 3.3, -3, 4
- CSc1nc(NS(=O)(=O)c2cc(C)c(Cl)cc2Cl)nn1C
 : 13, 0.7, 3.3, 3.7, -1, 1.7, 14, -13
- COC(=O)[C@@H](Cc1ccc(O)cc1)NC(=O)[C@H]1CCC(=O)N1C(=O)OCc1ccccc1
 : 0, -0.2, 4.6, -2.0, /, 2.8, -4, -11
- CCCCN(C)C(=O)c1nc2ccccn2c1CN1CCSCC1
 : 1, 0.5, -4.1, 3.0, -5, 3.3, -4, -5
- Cc1ccc(S(=O)(=O)N(C)C)cc1NC(=O)c1cc(-c2ccco2)nc2ccccc12
 : -1, -0.8, -4.9, -3.4, 4, -126, 44, 0
- O=C(NCCc1nc2ccccc2[nH]1)c1cccc(Br)c1
 : -2, -0.1, 3.2, -8.0, 2, 5.6, 18, 56*
- Cc1ccc(-c2nc3ncccc3o2)cc1NC(=O)c1cccnc1
 : -15, -0.2, -0.2, -0.1, -6, 1.6, 5, -2
- Cc1ccccc1NC(=O)C1CCN(C2=NS(=O)(=O)c3ccccc32)CC1
 : -5, 0.8, 3.4, 1.0, -8, 2.2, 20, -7
- CCN1CCN(C(=O)C2c3cc(OC)c(OC)cc3C(=O)N(C)C2c2ccc(SC)cc2)CC1 (stereo not given)
 : -4, 0.2, 0.5, -7.5, -3, 8.3, -1, -8
- Cc1cc2[nH]c(=O)c(=O)[nH]c2cc1S(=O)(=O)N1CCC(C)CC1
 : 0, -1.0, 0.3, 0.7, -4, -6.6, 8, 4
- CCOC(=O)N1CCN(C(=O)c2oc(=O)c3ccccc3c2-c2ccc(C)cc2)CC1
 : -11, 0.0, 3.4, -1.2, 1, 7.2, 4, 26
- N#CCCN(C(=O)CSc1ccc2c(c1)OCCO2)c1ccccc1
 : -6, -2.5, -2.7, 3.7, -12, 8.9, 6, -8
- CCOC(=O)c1nnc(-c2cccs2)nc1Oc1ccc(Cl)cc1
 : 12, -0.7, 1.0, 6.8, -8, 8.7, 3, -10
- CC(C)C(NC(=O)c1ccc(F)cc1)C(=O)Nc1cccnc1 (stereo not given)
 : 1, 1.4, -5.4, -0.7, 1, 1.4, 4, 4
- O=C(CSc1ccc(Cl)cc1)OCc1nnc(-c2ccccc2)o1
 : -5, -1.3, 7.5, 1.1, -6, 5.8, -8, -12
- O=C(NC(Cc1ccccc1)C(=O)O)/C(=C/c1cccc([N+](=O)[O-])c1)NC(=O)c1ccco1 (stereo not given)
 : 1, 1.0, ?, -5.4, -11, 4.1, -3, -4
- CC(C)C(NC(=O)/C(=C\c1ccco1)NC(=O)c1ccco1)C(=O)O (stereo not given)
 : -2, 0.4, 1.6, -8.3, -1, 5.0, 40, -10
- COc1cc(/C=N/Nc2ccc(Cl)c(C(=O)O)c2)ccc1OC(=O)c1ccccc1F
 : 2, -1.1, ?, -2.1, 2, /, -3, -4
- Clc1ccc(SCc2cn3ccccc3n2)cc1
 : -10, -0.9, 0.0, 1.1, /, 2.1, -41, -1
- CCCOc1ccc(S(=O)(=O)NCCCN2CCOCC2)c2ccccc12
 : -11, 0.4, -0.1, -1.8, 4, 4.7, 1, /
- CCN(CC)S(=O)(=O)c1ccc(O)c(NS(=O)(=O)c2ccccc2F)c1
 : -2, 0.5, -2.6, 2.8, -5, -0.4, -2, -7
- CN(C)C(CNC(=O)c1ccc(S(=O)(=O)Nc2cccc(C(F)(F)F)c2)cc1)c1ccco1 (stereo not given)
 : 4, 2.0, 2.1, -0.8, -7, -12, -29, 31
- CCNC(=O)C1CC(=O)N(c2ccc(Br)cc2)C1 (stereo not given)
 : -2, 0.8, 1.4, 0.4, -6, 4.6, -2, -7
- CC(C)C(NS(=O)(=O)c1cccc2nsnc12)C(=O)NC1CCCCC1C (stereo not given)
 : 12, 0.0, 7.9, 0.4, -5, 4.5, 11, 19
- O=[N+]([O-])c1cccc2c(S(=O)(=O)N3CCOCC3)cccc12
 : -7, 0.3, 1.7, 5.2, -1, 8.7, 8, 3
- COc1ccc(CCNC(=O)CN(c2ccc(C)cc2)S(=O)(=O)c2c(C)noc2C)cc1OC
 : 4, -0.3, -0.3, 4.1, 1, 4.9, 3, -9

Not a retest: entries from further up.
Every second line gives: B2AR ag, A1 inh, RanGTP-Imp inh, LANA-H2A inh, Beta apoptosis, UCH37 inh, Calb FLC, T cruzi repl
- CN(C)C(CNC(=O)c1ccc(S(=O)(=O)Nc2cccc(C(F)(F)F)c2)cc1)c1ccco1 (stereo not given)
 : 4, 2.0, 2.1, -0.8, -7, -12, -29, 31
- CCNC(=O)C1CC(=O)N(c2ccc(Br)cc2)C1 (stereo not given)
 : -2, 0.8, 1.4, 0.4, -6, 4.6, -2, -7
- CC(C)C(NS(=O)(=O)c1cccc2nsnc12)C(=O)NC1CCCCC1C (stereo not given)
 : 12, 0.0, 7.9, 0.4, -5, 4.5, 11, 19
- O=[N+]([O-])c1cccc2c(S(=O)(=O)N3CCOCC3)cccc12
 : -7, 0.3, 1.7, 5.2, -1, 8.7, 8, 3
- COc1ccc(CCNC(=O)CN(c2ccc(C)cc2)S(=O)(=O)c2c(C)noc2C)cc1OC
 : 4, -0.3, -0.3, 4.1, 1, 4.9, 3, -9

The listing continues.
Every second line gives: B2AR ag, A1 inh, RanGTP-Imp inh, LANA-H2A inh, Beta apoptosis, UCH37 inh, Calb FLC, T cruzi repl
- CNC(=O)c1c(NC(=O)c2cccc(N3C(=O)CCC3=O)c2)sc2c1CCCC2
 : -22, 0.7, -7.3, -2.0, 2, -50, 4, -16
- COc1ccc2cc1Oc1ccc(cc1)C[C@H]1c3cc(c(OC)cc3CCN1C)Oc1c(O)c(OC)cc3c1[C@H](C2)N(C)CC3
 : /, 1.1, 4.9, -1.1, 99*, 5.9, 12, 30
- CC1(OC(=O)C2CCCC2)C(=O)C=C2C=C(c3ccsc3)N(Cc3ccccc3)C=C2C1=O (stereo not given)
 : -4, 0.9, -3.6, 1.0, -3, -0.6, 6, 22
- Cc1cccc(NC(=O)c2cc([N+](=O)[O-])ccc2NC2CCCCC2)c1
 : -10, -0.2, 4.3, -3.5, 13, 6.4, -5, 47
- CCCCN(CCCC)Cc1ccc(C(=O)NNC(=O)Nc2ccccc2)o1
 : -9, 0.8, -0.4, -3.6, -18, 2.7, -7, -3
- COc1ccc(N(C(C)C(=O)N/N=C/c2ccc(OCC(C)C)cc2)S(C)(=O)=O)cc1 (stereo not given)
 : 10, 1.2, 0.0, -3.2, -4, /, -1, -1
- O=C(OCc1ccc(COC(=O)c2cccnc2Cl)cc1)c1cccnc1Cl
 : -1, 2.8, -2.1, 1.5, -3, 3.2, 16, -6
- Cc1csc(NC(=O)c2ccc(C)c(S(=O)(=O)N3CCOCC3)c2)n1
 : /, 2.1, 0.1, -0.1, -9, 4.6, ?, 17
